# Assay outcomes (PubChem BioAssay)
# gsp antagonist – qHTS for Antagonists of gsp, the Etiologic Mutation Responsible for Fibrous Dysplasia/McCune-Albright Syndrome: qHTS; gsp-mutant cells, cAMP HTRF, 30 min; control for the full effect not named in the record; Potency, µM (series often up to 76.9 µM), inactives show at the top dose activity change, negative = inhibition, actives largely listed as inhibitors; 0.4% of 340,000 active; active = falling curve of any shape with a large fitted effect; inconclusive = falling curve, mostly with a smaller effect; inactive = flat or rising curve; cell line not stated here;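 note: intracellular cAMP measured with PDE inhibitor Ro 20-1724 present during compound exposure; potency is the fitted concentration of half-maximal effect; % is set by controls: 0 for no effect and ±100 for the full control effect; nearly all actives have a fitted effect of over 65% in size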
#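 Cells in G418 medium, seeded 16-24 h, 37C; buffer exchange to DPBS + 1 mM CaCl2, 0.5 mM MgCl2, 0.05% BSA; cpds in DMSO + […] (300 uM stock), 30 min 37C; HTRF cAMP detection.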
# TRPML1 blocker – qHTS for Inhibitors of the Human Mucolipin Transient Receptor Potential 1 (TRPML1) | activity change, negative = inhibition, % (concentration not given with the values) | Mucolipin-1 (Homo sapiens), Q9GZU1 | AID 624415, 2012 | TRPML1-inducible cells, Ca2+ dye fluorescence, FDSS; active compounds read low; inhibition of EC80 agonist-evoked calcium signal | 0.02% of 390,000 active; in the data active means activity change below about -50%; inconclusive means about -30% to -50%; inactive means above about -30%;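 note: stimulus is agonist 54-4 at its EC80 concentration; % is set by controls: 0 for no effect and ±100 for the full control effect; the text of the record puts the active cut at -80%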
# Target sequence (Q9GZU1 whole entry, looked up): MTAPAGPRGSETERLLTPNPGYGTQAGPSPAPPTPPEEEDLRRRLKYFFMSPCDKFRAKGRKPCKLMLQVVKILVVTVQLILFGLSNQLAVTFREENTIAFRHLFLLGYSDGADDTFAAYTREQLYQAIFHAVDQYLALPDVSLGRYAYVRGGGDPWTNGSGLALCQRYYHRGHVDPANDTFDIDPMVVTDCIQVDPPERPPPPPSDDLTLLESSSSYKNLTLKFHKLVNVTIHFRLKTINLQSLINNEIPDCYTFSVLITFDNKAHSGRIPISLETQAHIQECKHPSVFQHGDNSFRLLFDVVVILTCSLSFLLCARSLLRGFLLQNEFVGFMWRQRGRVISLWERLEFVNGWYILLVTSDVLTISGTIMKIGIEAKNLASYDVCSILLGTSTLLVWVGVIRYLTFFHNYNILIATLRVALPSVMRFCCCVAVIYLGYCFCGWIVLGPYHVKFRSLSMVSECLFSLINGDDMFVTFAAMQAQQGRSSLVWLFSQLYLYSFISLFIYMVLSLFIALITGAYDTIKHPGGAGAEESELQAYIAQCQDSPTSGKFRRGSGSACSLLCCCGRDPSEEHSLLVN
#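 TRPML1-DL cells, Tet-induced overnight (~16 h, 37 °C) at 1,500 cells/well, were loaded with Ca8 no-wash dye plus quencher for 45-90 min at room temperature. Compounds were pinned during FDSS kinetic reading; agonist 54-4 at EC80 (4 uM final) then added.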
# TRPML1 agonist – qHTS for Agonists of the Human Mucolipin Transient Receptor Potential 1 (TRPML1) | Mucolipin-1 (Homo sapiens), Q9GZU1 | TRPML1-expressing cells, Ca2+ dye fluorescence, FDSS; host cell line not named in the record; reference of the full effect not given here | activation, % (no concentration beside the values) | 0.12% of 410,000 active | AID 624414, 2012; in the data active = activation above about 50%; inconclusive = about 30% to 50%; inactive = below about 30%; note: 0% is about no effect; the text of the record puts the active cut at 80%
#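 Calcium fluorescence on an FDSS kinetic reader gave the read-out. Tet-induced TRPML1-DL cells were plated overnight, dye-loaded (Ca8 with quencher, 45-90 min, room temperature, dark), then read 110 s after compound addition, and again 110 s after 4uM final 54-4 (EC80).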
# Menin MLL FP FL – qHTS Assay for Inhibitors Targeting the Menin-MLL Interaction in MLL Related Leukemias: Competition With Fluorescein Labeled MLL-derived Peptide; Fluorescence polarization, fluorescein-MLL peptide displacement from menin; FP activity change, % at 61.4 µM; 290,000 tested, under 10 active; AID 1766, 2009; inconclusive = falling polarisation curve, or a change in total fluorescence; inactive = total fluorescence flat and polarisation flat or rising; no compound was filed as active; the % refers to the polarisation; negative = inhibition;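 note: % of control where 0% means no effect; inhibitors lower the polarisation; unlabelled MLL peptide was the positive control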
# gsp ag – qHTS for Agonist of gsp, the Etiologic Mutation Responsible for Fibrous Dysplasia/McCune-Albright Syndrome: qHTS. gsp mutant cells, cAMP HTRF, 30 min; control for the full effect not named in the record. Potency, µM (highest dose often 76.9 µM), for inactives: at the top dose activation (cAMP increase), hits mostly activators. 0.13% of 340,000 active. AID 624287, 2012; active = well fitted activation curve with a large enough effect; inconclusive = small, poorly fitted or top-dose-only effect, or another doubt; inactive = no such curve, though single readings can be large or run the other way; cell line not stated here;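 note: phosphodiesterase inhibitor Ro 20-1724 added with compounds to block cAMP breakdown; potency is the fitted concentration of half-maximal effect; nearly all actives have a fitted effect of over 60% in size; about a fifth of the inactives were tested at one dose only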
#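 Cells in DMEM/10% FBS with G418 were pretreated with compounds in DMSO plus […] (300 uM stock) for 30 min at 37C. cAMP was measured by HTRF (cAMP-d2 plus anti-cAMP antibody-K) after 30 min at room temperature.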
# ClpP mod – qHTS Assay for Activators of ClpP; purified B. subtilis ClpP, FRET peptide cleavage, 20 min; 1.9% of 340,000 active; ATP-dependent Clp protease proteolytic subunit (Bacillus subtilis (strain 168)), P80244; AID 651965, 2013; Potency, µM (highest dose often 57.5 µM), for the others: top-dose activity change, negative = active; active = well fitted falling curve with a large enough effect; inconclusive = small, poorly fitted or top-dose-only effect; inactive = no such curve, though single readings can be large or run the other way; note: potency is the fitted concentration of half-maximal effect; the source files actives as falling curves though it sought activators and does not explain the sign; nearly all actives have a fitted effect of over 65% in size; many hits overshoot -100%
# Target sequence (P80244 whole entry, looked up): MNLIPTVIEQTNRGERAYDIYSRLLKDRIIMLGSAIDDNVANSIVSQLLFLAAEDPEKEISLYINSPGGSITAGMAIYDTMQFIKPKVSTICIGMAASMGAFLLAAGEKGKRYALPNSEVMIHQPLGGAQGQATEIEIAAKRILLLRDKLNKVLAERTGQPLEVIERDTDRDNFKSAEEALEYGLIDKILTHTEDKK
#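 Purified B. subtilis ClpP, 10 microg/mL final in Tris/HCl pH8 with KCl, BSA, glycerol and Tween-20, cleaved an Abz/nitrotyrosine-quenched decapeptide. Fluorescence (ex 320, em 430) was read at 0 and 20 min at room temperature. Delta was normalized to 5.8 microM ADEP and DMSO/no-enzyme controls.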
# The depositor's hits bear a star; u = inconclusive; x = not tested or not shown; [ ] = another dose, or the depositor's remark.
No.	molecule	gsp antagonist	TRPML1 blocker	TRPML1 agonist	Menin MLL FP FL	gsp ag	ClpP mod
1	COc1cc(OC)cc(C(=O)Nc2nc(CC(=O)NC(C)c3ccccc3)cs2)c1 (stereo unspecified)	-28%	16	1.2	x	-1%	-7.0%
2	Cc1cc(C(=O)Nc2ccc(F)cc2)c2ccccc2n1	-1%	-1	0.0	1.5	4%[15.4 µM]	-2.6%
3	Cc1ccc(S(=O)(=O)N2CCN(C(=O)CCn3nc(C)c(C)c3C)CC2)cc1C	3%	-3	0.5	1.2	0%[15.4 µM]	x
4	CN(C(=O)COC(=O)c1ccccc1Nc1ccccc1)c1c(N)n(Cc2ccccc2)c(=O)[nH]c1=O	-10%	-10	-0.8	x	16%[15.4 µM]	x
5	NC(=O)Cn1c(=O)n(Cc2ccco2)c(=O)c2c3c(sc21)CCCCC3	-1%	11	0.0	4.1	3%	1.8%
6	Cc1c(CN2CCCC(C(=O)c3cccc(Cl)c3)C2)c(=O)n(-c2ccccc2)n1C (stereo unspecified)	x	1	0.6	0.1	-2%[15.4 µM]	x
7	O=C(Cc1cccs1)N1CCN(c2ccccn2)CC1	-6%	-5	-1.1	0.8	u	u
8	CC(C)Cn1c(N2CCN(C(=O)c3cccs3)CC2)nc2ccccc21	-16%	31	1.1	2.1	-36%[inhibitor]	-0.7%
9	O=C(Cc1nnc(NC(=O)Nc2ccc(Cl)cc2)s1)NCc1ccccc1	8%	19	0.5	3.5	1%	-2.5%
10	CCCc1nc2ccc(Cl)cn2c1Cc1ccccc1	x	18	1.1	x	x	u
11	CC1(C)CC(CCN)(Cc2ccccc2Cl)CCO1 (stereo unspecified)	-3%	12	0.3	1.0	32%	x
12	CCOc1ccc(C(=O)Nc2ccc3oc(-c4ccc5ccccc5c4)nc3c2)cc1	x	3	0.4	x	x	-14%
13	c1ccc(-c2nc3ccccn3c2-c2ccccc2)cc1	-7%	13	0.5	x	3%[15.4 µM]	2.2%
14	CCOc1ccc(-n2c(SCC(=O)Nc3cc(C)ccc3C)nc3c([nH]c4ccccc43)c2=O)cc1	x	11	0.3	x	x	-9.6%
15	O=C(CSc1ccccc1F)NCC1(N2CCCCC2)CCCCC1	-7%	-8	0.0	x	0%	-1.4%
16	CCOC(=O)c1cnc(-n2nc(C)cc2C)nc1NCCO	4%	-14	-0.6	0.3	-16%	u
17	O=C(COC(=O)c1ccc2c(c1)OCCO2)Nc1cc(Cl)ccc1Cl	12%	-1	0.5	1.8	7%	-4.6%
18	CCCCOC(=O)c1ccc(NC(=O)C(=O)NCC2CCCO2)cc1 (stereo unspecified)	-15%	-2	0.1	2.8	1%	51%
19	CC(C)C(=O)N1CCN(c2ccccc2N)CC1	1%	37	0.0	1.8	-2%	-2.2%
20	Cc1ccc(S(=O)(=O)N2CCN(C(=O)COC(=O)c3cnc(C)cn3)CC2)c(C)c1	1%	-12	0.6	x	9%[15.4 µM]	0.1%
21	CC1(C)C2CCC1(CS(=O)(=O)N1CCCC1C(=O)O)C(=O)C2 (stereo unspecified)	6%	23	0.9	x	-1%[15.4 µM]	1.6%
22	CCSC1=N/C(=C\C=C2/Oc3ccccc3N2CC)C(=O)S1	-9%	-8	6.4	u	21%	x
23	Cc1ccc(CN2CCCN(CC(=O)Nc3ccc(C)cc3C)S2(=O)=O)cc1	x	-7	2.8	x	x	0.0%
24	CCNC(=O)NC(=O)C(C)OC(=O)c1ccc(-n2nc(SC)sc2=S)cc1 (stereo unspecified)	-15%	-24	1.0	-0.7	-15%[15.4 µM]	x
25	COc1ccc(C)cc1S(=O)(=O)N1CCN(C)CC1c1ccccc1 (stereo unspecified)	u	-9	0.1	x	-37%[inhibitor]	-3.0%
26	COc1ccc(Nc2sc(C(=O)c3ccc(Cl)cc3)c(N)c2C(=O)Nc2ccccc2OC)cc1	13%	4	u	-0.1	-47%[inhibitor]	0.9%
27	CCNCc1nc2cc(OC)c(OC)cc2c(=O)[nH]1	9%	8	2.4	4.6	8%	-5.7%
28	O=C(c1ccc(Cl)cc1Cl)N1CCSCC1	-8%	-23	-0.3	2.7	5%[15.4 µM]	-0.9%
29	N#Cc1sc2nc(-c3cccs3)cc(-c3ccc(Cl)cc3)c2c1N	-5%	-4	1.3	u	u	-6.1%
30	O=C(COC(=O)c1ccc([N+](=O)[O-])o1)Nc1ccc2c(c1)OC(F)(F)O2	x	14	-1.0	x	u	0.7%
31	CCOC(=O)CC(=O)CSc1nc(-c2ccccc2)cc(-c2ccc(Cl)cc2)c1C#N	-37%	-7	-0.3	19	26%	58%
32	CSc1ncccc1C(=O)Nc1ccc(C)cn1	-1%	-9	0.0	x	-40%[inhibitor]	-4.2%
33	Cc1nnc(N2CCCC(C(=O)NCCc3ccc(Cl)cc3)C2)c2nn(-c3ccccc3)c(C)c12 (stereo unspecified)	x	17	0.9	x	x	-27%
34	CCOC(=O)c1ccc(OCC2c3cc(OC)c(OC)cc3CCN2C(=O)Cc2ccc(OC)c(OC)c2)cc1 (stereo unspecified)	x	18	2.5	x	x	-1.7%
35	O=C(c1cccc(F)c1)N1CCC2(CC1)NCCc1[nH]cnc12	7%	-22	-0.1	x	11%	-3.8%
36	O=C(OCCCc1cc2ccccc2c(=O)o1)N1CCOCC1	1%	-2	-0.7	x	x	-17%
37	CC(C)(C)C(=O)COC(=O)c1ccccc1O	10%	-6	-0.9	1.3	1%	11%
38	CC1(C)Oc2ccc3ccc(=O)oc3c2/C(=C/NNC(N)=S)C1=O	-2%	-21	1.2	3.7	24%	x
39	O=C(NCc1cccs1)Nc1cccs1	6%	5	-0.9	18	-17%	0.7%
40	O=C(CSc1nc(-c2ccccc2)c(-c2ccccc2)o1)N1CCCCC1	x	-3	0.2	x	u	3.5%
41	N=c1sc2ccccc2n1-c1ccccc1	12%	4	2.0	3.9	12%	-3.0%
42	CCOC(=O)CC1C(=O)NC2CCCCC2N1C(=O)Nc1ccc(Cl)cc1 (stereo unspecified)	14%	1	1.9	-1.4	-80%[inhibitor]	1.0%
43	COc1ccc(CNc2oc(COc3ccccc3)nc2C#N)cc1	-3%	13	5.2	-1.2	9%	-0.6%
44	COc1ccc(Cn2c(=O)[nH]c3cc(C(=O)N4CCN(c5cc(Cl)ccc5C)CC4)ccc3c2=O)cc1	x	2	-0.6	x	x	-0.3%
45	COCC(=O)n1nc(-c2ccc(C)cc2)nc1NCc1ccc(F)cc1	4%	0	2.1	4.3	-32%[15.4 µM]	x
46	COc1ccc(Nc2nc(C(F)(F)F)nc(C)c2C#N)cc1	5%	20	-0.5	-2.9	8%	-2.2%
47	NC(N)=NS(=O)(=O)c1ccc(NC(=S)NC(=O)Cc2ccc(Cl)cc2)cc1	3%	1	0.5	4.2	4%	1.8%
48	O=C(O/N=C/c1ccc(Br)cc1)c1ccc(F)cc1	1%	18	-0.1	x	3%[15.4 µM]	-1.2%
49	Cc1ccc(C)c(N2CCN(C(=O)CCn3c(=O)[nH]c4ccccc4c3=O)CC2)c1	x	6	-0.1	x	x	-7.3%
50	Cc1cc(C)n(CCNC(=O)c2cc(COc3c(F)cccc3F)on2)n1	5%	4	0.7	2.0	-22%	x
51	S=C(NCCc1ccc(Cl)cc1)NCc1ccccc1	-1%	3	0.9	-7.8	3%	-4.0%
52	Cc1cc(C)c(Cn2cnc3ccccc32)c(C)c1	-8%	36	0.7	-0.2	-14%	x
53	COC(=O)c1sccc1NC(=O)CSc1ccccc1NS(=O)(=O)c1ccc(Cl)cc1	u	4	0.6	-0.2	12%	-0.1%
54	COC(=O)C1CCCN1C(=O)COc1ccc(Cl)cc1Br (stereo unspecified)	15%	-4	-0.3	-1.2	-42%[inhibitor]	1.1%
55	O=C(NCc1cccnc1)C1CC(c2ccc(F)cc2)=NO1 (stereo unspecified)	-1%	-7	-0.6	-1.0	1%	0.7%
56	CC(=O)Nc1ccc(S(=O)(=O)N2CCN(C(=O)c3ccccc3F)CC2)cc1	-5%	-2	0.5	-2.4	3%	0.9%
57	COc1ccc(OCc2nnc(SC(C)C(=O)Nc3ccc(N4CCOCC4)cc3)n2C)cc1 (stereo unspecified)	1%	-5	1.0	x	-10%[15.4 µM]	0.2%
58	COc1cccc(CC(NC(C)=O)C(=O)NC2CCN(S(=O)(=O)c3ccc(C)cc3)CC2)c1OC (stereo unspecified)	-3%	-6	0.2	-0.5	-25%	x
59	O=C(NCCCn1ccnc1)c1ccco1	6%	-5	1.0	0.7	-3%	-0.9%
60	COc1cccc(C2C(C(C)=O)=C(O)C(=O)N2Cc2ccco2)c1 (stereo unspecified)	4%	-9	0.9	-0.5	15%	-3.4%

# (continued)
No.	molecule	gsp antagonist	TRPML1 blocker	TRPML1 agonist	Menin MLL FP FL	gsp ag	ClpP mod
61	O=C(Nc1cccc(Cl)c1)OCc1cnc(Cl)s1	3%	0	0.2	-1.3	-13%	0.3%
62	O=[N+]([O-])c1ccc2nc(-c3ccc(Cl)cc3)n(OCc3ccccc3)c2c1	1%	-9	-0.4	-4.4	-11%	0.4%
63	Cc1cccc(-c2nc(SCc3ccc(Br)cc3)n3[nH]c(=O)cc3n2)c1	x	-14	-0.1	x	x	4.8%
64	CC1c2[nH]c3ccccc3c2CCN1S(C)(=O)=O (stereo unspecified)	1%	-3	-0.5	2.5	-20%	-2.3%
65	O=C(Nc1ccc(Br)cc1)Nc1ccccc1Cl	-1%	-10	2.1	-9.1	-20%	-0.5%
66	COc1cc(C(=O)OCC(=O)NCC2CCCO2)cc(OC)c1OC (stereo unspecified)	3%	-5	-0.8	x	15%	-9.8%
67	CCNC(=S)Nc1ccc(Cl)cc1Cl	2%	-12	-0.5	10	-4%	-19%
68	COc1ccc(NC(=O)CN2C(=O)C(c3ccc(C)cc3)=NC23CCCCCC3)cc1Cl	x	-17	1.1	x	x	-1.9%
69	CC(C)CNC(CC(=O)Nc1cccc([N+](=O)[O-])c1)C(=O)O (stereo unspecified)	4%	3	-0.1	-0.6	21%	-4.2%
70	O=C(NCC1CCCO1)c1cc(C(=O)C2CC2)c[nH]1 (stereo unspecified)	9%	12	-1.2	1.5	-28%	-1.5%
71	Brc1ccc2nc(SCCOc3ccccc3)[nH]c2c1	x	6	4.5	x	x	0.0%
